KCNQ2 block = KCNQ2 potassium channel inhibitors, primary screen, cell-based, CHO-K1, FluxOR thallium flux, B-score (AID 2156). Potassium voltage-gated channel subfamily KQT member 2 (Rattus norvegicus), O88943. 20 min; stronger effect = lower value; only compounds with negative scores are shown here; some inactives read as strong as hits. B-score at 10 µM. 310,000 compounds, 1.1% hits;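 active means fluorescence ratio B-score at most minus 3 library SDs, with starting brightness B-score within 2 library SDs, cut at about -5.5 in these data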
Target sequence (O88943 whole entry, looked up): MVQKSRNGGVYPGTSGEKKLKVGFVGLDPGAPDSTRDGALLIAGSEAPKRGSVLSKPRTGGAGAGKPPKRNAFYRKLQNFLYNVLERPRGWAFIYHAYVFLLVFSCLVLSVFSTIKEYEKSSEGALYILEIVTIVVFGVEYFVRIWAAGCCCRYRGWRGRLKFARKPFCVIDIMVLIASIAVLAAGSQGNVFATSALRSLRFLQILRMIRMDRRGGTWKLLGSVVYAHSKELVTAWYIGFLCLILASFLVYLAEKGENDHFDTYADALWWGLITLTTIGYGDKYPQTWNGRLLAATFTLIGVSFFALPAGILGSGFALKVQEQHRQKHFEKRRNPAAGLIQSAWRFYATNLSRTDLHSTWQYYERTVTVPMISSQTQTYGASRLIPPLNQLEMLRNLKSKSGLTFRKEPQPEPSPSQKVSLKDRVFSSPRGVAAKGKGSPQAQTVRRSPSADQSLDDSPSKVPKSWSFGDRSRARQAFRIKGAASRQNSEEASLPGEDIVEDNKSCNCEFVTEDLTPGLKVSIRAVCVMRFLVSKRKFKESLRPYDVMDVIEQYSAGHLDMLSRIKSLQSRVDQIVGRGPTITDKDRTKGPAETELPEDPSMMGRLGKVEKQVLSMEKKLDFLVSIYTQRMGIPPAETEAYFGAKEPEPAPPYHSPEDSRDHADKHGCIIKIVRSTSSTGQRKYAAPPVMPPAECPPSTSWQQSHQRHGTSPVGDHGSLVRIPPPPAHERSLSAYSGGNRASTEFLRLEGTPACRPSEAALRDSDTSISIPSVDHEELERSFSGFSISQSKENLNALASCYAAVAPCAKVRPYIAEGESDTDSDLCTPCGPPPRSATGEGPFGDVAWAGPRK
KCNQ2 block baseline = second read-out of KCNQ2 block, no call of its own (marks repeat the call); B-score; measured here: initial fluorescence intensity artifact check;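 brightness before thallium and not channel activity; 0 = typical well and far values either way flag optical interference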
Numbers without * were called inactive; i = inactive. These rows are one share of the data (hit frequency here may not be typical).

A first look (3 entries):
SMILES	KCNQ2 block	KCNQ2 block baseline
Cc1cccc(C)c1NC(=O)CSc1nnc(-c2cnccn2)n1C	i	1.1
CN(C)C(=O)CCSc1nnc(-c2ccco2)o1	i	-1.8
Cn1cccc1C1Nc2ccccc2NC2=C1C(=O)CC(C)(C)C2 (configuration not stated)	i	1.8

All compounds of this part, from the first entry:
SMILES	KCNQ2 block	KCNQ2 block baseline
Cc1cccc(C)c1NC(=O)CSc1nnc(-c2cnccn2)n1C	i	1.1
CN(C)C(=O)CCSc1nnc(-c2ccco2)o1	i	-1.8
Cn1cccc1C1Nc2ccccc2NC2=C1C(=O)CC(C)(C)C2 (configuration not stated)	i	1.8
COCC(=O)n1nc(-c2ccccc2)nc1NCc1ccc(F)cc1	i	0.13
CCN1CCCC1CNC(=O)c1ccc2c(c1)NC(=O)/C(=C\c1ccc(C)cc1)S2 (configuration not stated)	-7.6*	1.2*
O=C(N/N=C/c1c[nH]c2ccc(Br)cc12)c1ccc2c(c1)OCO2	i	0.28
Cc1cccc(N(C(=O)c2ccc(CN3CCOCC3)o2)C(C(=O)NC(C)(C)C)c2ccc(F)cc2)c1 (configuration not stated)	i	0.67
CCO[C@H]1OC(C(=O)N2CCN(Cc3ccccc3)CC2)=C[C@@H](c2ccc(C(F)(F)F)cc2)[C@@H]1CCCO	i	-0.26
Cn1cc(C(=O)C(F)(F)F)c2ccccc21	i	1.4
S=C(NC12CC3CC(CC(C3)C1)C2)N1CCOCC1	i	-0.42
CC(=O)/C(=N/Nc1cccc(Cl)c1)Sc1nnc(C(O)c2ccccc2)n1-c1ccccc1 (configuration not stated)	i	2.1
CCOc1cc(-c2nn3cnnc3s2)cc(OCC)c1OCC	i	-2.5
CCOC(=O)c1c(NC(=O)CSc2nnc(-c3ccco3)o2)sc(C(C)=O)c1C	i	0.57
Cc1ccc(CN2C(=O)c3ccccc3NC23CCN(Cc2ccccc2)CC3)cc1	i	0.83
CC(C)(C)OC(=O)NCCCCC1=CC2=CC(=O)C(C)(OC(=O)c3cnc4ccccc4n3)C(=O)C2=CO1 (configuration not stated)	i	0.11
Cc1ccc(-c2cc(-c3ccccc3Cl)c(C#N)c(N)n2)o1	i	1.1
COc1cc(/C=C2\SC(=S)N(CC(=O)Nc3ccccn3)C2=O)cc(OC)c1OC	i	-1.1
CCOc1cc(-c2nnc(-c3ccco3)o2)cc(OCC)c1OCC	i	0.07
COC(=O)C1=CN(Cc2ccc(OC)cc2)C=C(C(=O)OC)C1c1ccsc1	i	0.24
O=C(Nc1nccs1)c1cccnc1Cl	i	0.05

Record cards, as listed above. Values in the order: KCNQ2 block, KCNQ2 block baseline
Shown for CC(C)(C)OC(=O)NCCCCC1=CC2=CC(=O)C(C)(OC(=O)c3cnc4ccccc4n3)C(=O)C2=CO1 (configuration not stated) : i, 0.11
Shown for Cc1ccc(-c2cc(-c3ccccc3Cl)c(C#N)c(N)n2)o1 : i, 1.1

New compounds follow
SMILES	KCNQ2 block	KCNQ2 block baseline
CCN(CC)CCOc1cc2c(nn1)Oc1ccccc1N2C	i	0.35
CC(=O)Nc1ccccc1P(=O)(c1ccccc1)c1ccccc1OC(C)=O (configuration not stated)	i	0.73
O=C1C(=C2CCCCC2)SC(=S)N1Cc1ccco1	i	-0.68
CCCCC(OC(=O)CN1C(=O)COc2ccccc21)C(=O)NC1CCCCC1 (configuration not stated)	i	-0.22
CSc1ncccc1C(=O)OCC(=O)c1ccccc1Br	i	1.9
COc1ccc(CCNC(=O)COC(=O)/C=C/c2ccc(OCC#N)c(OC)c2)cc1OC	i	1.4
Cc1ccc(C2CC(=O)C=C(NCC(C)C)C2)cc1 (configuration not stated)	i	-0.46
CCC(Oc1ccc(C)cc1)C(=O)Nc1ccc2c(c1)n(C)c(=O)n2C (configuration not stated)	i	0.95
CC1Cc2ccccc2N1C(=O)CSc1nc2c(c(=O)n(C)c(=O)n2C)n1Cc1ccc(F)cc1 (configuration not stated)	i	2.5
CC(=O)c1cccc(S(=O)(=O)Nc2cccnc2)c1	i	0.23
CCOCCCN1C(=O)CN(C2CCC(C)CC2)C(=O)C1c1ccc(C)cc1 (configuration not stated)	i	-0.23
Cc1cccc(C(=O)OCC(=O)NCCCc2ccccc2)c1O	i	0.14
COc1ccccc1NC(=O)COC(=O)Cc1cccs1	i	0.73
Cc1nn(C)cc1/C=N/NC(=O)C1(O)c2ccccc2-c2ccccc21	i	-0.3
CCCCn1c(N)c(N(CCC(C)C)C(=O)c2ccc([N+](=O)[O-])s2)c(=O)[nH]c1=O	i	1.4
CC(C)(C)c1cc(C(C)(C)C)n(-c2ccccc2)n1	i	-0.75
COc1ccc(CNC(=O)CSc2nnc(C)n2-c2ccc(F)cc2)cc1	i	-1
COC(=O)c1ccccc1SCc1csc(C)n1	i	0.04
CC12CCC(C(=O)N3CCCCC3)(CC1=O)C2(C)C (configuration not stated)	i	-0.49
COc1cc(OC)c2c(=O)cc(-c3cccnc3)oc2c1	i	1.2
Oc1ccc(/C=N/N2CCN(C3c4ccccc4-c4ccccc43)CC2)cc1O	i	-1.9
O=C(NCc1cccc(F)c1)C1CCN(S(=O)(=O)Cc2ccccc2)CC1	i	1.8
Cc1c(Br)cc(C(=O)N2CCCC2)c(C)c1C	i	0.98
Cc1csc(NC(=O)/C=C/c2ccc(C)o2)n1	i	-1.1
CNC(=S)NNC(=O)COc1ccc(C)c(C)c1	i	-0.89
Cc1ccccc1-n1c(SCc2cccc(F)c2)nc2[nH]ncc2c1=O	i	-0.26
CS(=O)(=O)c1cccc(C(=O)Oc2ccccc2)c1	i	0.01
C=CCC1(CC=C)CCCN1C(=O)C1CCC(=O)N(CCc2ccc(OC)cc2)C1 (configuration not stated)	i	0.65
Cc1cc(C)cc(NC(=S)NCc2cccn2C)c1	i	1.6
O=C(CCc1nc2ccccc2s1)NC1CCOC1=O (configuration not stated)	i	-0.48
COCCCN(C(=S)Nc1cc(Cl)cc(Cl)c1)C(C)c1ccccn1 (configuration not stated)	-8.5*	-1*
CC(=O)N1c2ccccc2Oc2cc3ccccc3cc21	i	1.4
Cc1cccc(NCCNc2cccc(C)c2)c1	i	0.27
Cc1ccc(-c2nnn(CC(=O)N(CC(=O)NC3CCCC3)c3cnc4ccccc4c3)n2)o1	i	2.1
CCn1ncc(S(=O)(=O)N2CCN(c3cccc(OC)c3)CC2)c1C	i	0.07
COc1ccc(NC(=O)c2cn3c(nc4ccccc43)c(C#N)c2C)cc1	i	0.09
C/C(=C(\C#N)C(=O)NCCCN1CCOCC1)N(C)C	i	0.35
COc1ccc(CCN=CC2=C(O)CC(C)(C)CC2=O)cc1	i	1.9
CCOc1ccc(N=C2SC(C(=O)Nc3ccccc3C#N)C(N)=C2C(=O)Nc2ccc(Cl)cc2)cc1 (configuration not stated)	i	0.05
O=C(O)C1CCCCC1C(=O)Nc1ccc(S(=O)(=O)N2CCCC2)cc1 (configuration not stated)	i	0.17

Among those listed so far, 2 have a CF3 group.
SMILES	KCNQ2 block	KCNQ2 block baseline
CCO[C@H]1OC(C(=O)N2CCN(Cc3ccccc3)CC2)=C[C@@H](c2ccc(C(F)(F)F)cc2)[C@@H]1CCCO	i	-0.26
Cn1cc(C(=O)C(F)(F)F)c2ccccc21	i	1.4

Remaining list, next part:
SMILES	KCNQ2 block	KCNQ2 block baseline
COc1ccc(C2=NN(C(=O)c3ccco3)C(c3ccco3)C2)cc1OC (configuration not stated)	i	-0.07
CCOc1cc(/C=C/c2nc3ccccc3s2)ccc1OCC(=O)N1CCOCC1	i	-2.9
O=S(=O)(c1cccc(Cn2nnc(-c3ccc(F)cc3)n2)c1)N1CCOCC1	i	0.3
Cc1cc(Br)ccc1S(=O)(=O)NCc1ccccc1	i	0.45
CCCn1c(SCC(=O)Nc2ccc(OC)cc2[N+](=O)[O-])n[nH]c1=O	i	-1.6
CCCCCN(C(=O)COC(=O)c1ccc(Br)o1)c1c(N)n(CCCC)c(=O)[nH]c1=O	i	0.12
Cc1ccc(/C=C/C(=O)NCc2ccc(S(N)(=O)=O)cc2)o1	i	-0.78
COc1ccc(N/C(C)=C/C(=S)Nc2ccccc2)cc1	i	0.01
CC1=C(C(=O)Nc2ccccc2)C(c2ccco2)n2ncnc2N1 (configuration not stated)	i	-0.15
CC(C)c1ccc(NC(=O)Cn2cccc2C2=NC(c3ccccc3)CO2)cc1 (configuration not stated)	i	-0.09
CCN(C(=O)CSc1nc2c(cnn2-c2ccccc2)c(=O)[nH]1)C1CCS(=O)(=O)C1 (configuration not stated)	i	1.9
O=C(CNc1cc(S(=O)(=O)N2CCOCC2)ccc1N1CCCC1)N1CCc2ccccc21	i	-1
O=C(c1cccc(Cl)c1Cl)N1CCN(c2ccccn2)CC1	i	-0.3
Cc1cc(C)c(C(=O)N2CCCC(N3CCN(c4ccc(F)cc4)CC3)C2)o1 (configuration not stated)	i	-0.37
COCCn1nnnc1CN1CCC(NC(=O)c2ccc(Br)cc2)CC1	i	-0.32
CC(=O)C1=C(O)C(=O)N(CC(=O)O)C1c1ccccc1Cl (configuration not stated)	i	-0.08
CC(C)(C)NC(=O)CN(C(=O)c1csnn1)c1ccccc1-c1ccccc1	i	1.3
CCOc1ccc(/C=N/n2c(SC)nnc(C(C)(C)C)c2=O)cc1	i	1.2
CCCc1cc(=O)[nH]c(SCC(=O)N2CCN(S(=O)(=O)c3ccccc3)CC2)n1	i	-0.07
CCCCCCN=C1CC(C)(C)CC(=O)/C1=C(/O)CCC	i	1.2
CC(C)Oc1ccc(C(=O)Nc2c3c(nn2-c2ccccc2)CS(=O)(=O)C3)cc1	i	1.7
Cc1ccc(-c2cc(C(F)F)n3ncc(C(=O)N4CCN(c5ccccn5)CC4)c3n2)cc1	-5.7*	2.1*
O=S(=O)(c1ccccc1)c1nc(-c2ccco2)oc1NCCCN1CCOCC1	i	-0.15
CCOc1ccc2oc(C(=O)NNC(=O)c3csc(N4CCOCC4)n3)c(C)c2c1	i	-2.8
Cc1cnc(C(=O)OC(C)C(=O)Nc2ccccc2-c2ccccc2)cn1 (configuration not stated)	i	0.35
O=C(CNC(=O)c1ccc(Br)o1)NCc1ccccc1Cl	i	-0.03
CCOc1ccc(Nc2nc3ccccc3n3nnnc23)cc1	i	0.24
Cc1ccc(C2CC(c3ccco3)n3ncnc3N2)cc1 (configuration not stated)	i	-0.69
CCN(CCO)c1ccc(-n2c(N)c(C(=O)OC)c3nc4ccccc4nc32)cc1	i	-0.88
O=C(N/N=C/c1ccc(OC(=O)c2ccco2)cc1)c1ccc[n+]([O-])c1	i	-0.04
CS/C(=N\S(=O)(=O)c1cccs1)Nc1ccc(Br)cc1F	i	-1.1
Cc1ccc(NC(=O)NNC(=O)c2cc3ccccc3cc2O)cc1C	i	0.13
COC(=O)C1=C(CSCc2ccco2)NC(=O)NC1c1cc(C)ccc1C (configuration not stated)	i	-0.09
O=C(c1cnn2c(C(F)(F)F)cc(-c3ccc4c(c3)OCO4)nc12)N1CCCC1	i	-0.92
COc1ccc(C(=O)Nc2ccc(N3CCN(C(C)=O)CC3)cc2)cc1[N+](=O)[O-]	i	0.43
CCn1ccc(C(=O)Nc2ccccc2SC)n1	i	-0.08
Fc1cccc(C[n+]2csc3ccccc32)c1	i	-0.13
Oc1ccccc1/C=N/c1c(-c2ccco2)nc2ccccn12	i	0.32
O=C(CSc1nnnn1C1CCCCC1)Nc1ccccc1F	i	-1.1
N#Cc1ccc(-c2csc(NC(=O)c3ccc(S(=O)(=O)N4CCc5ccccc5C4)cc3)n2)cc1	i	-2.2
COc1ccc(-c2n[nH]c(=S)n2-c2ccc(C)cc2)cc1	i	0.94
Clc1cccc(-c2sc(Nc3ccccc3)n[n+]2-c2ccccc2)c1Cl	i	1.2
COc1ccc(N2CC(C(=O)NCCC3=CCCCC3)CC2=O)cc1 (configuration not stated)	i	0.16
CSCC(=O)NCC1(N(C)Cc2ccccc2)Cc2ccccc2C1	i	-1.7
O=C(/C=C/c1ccccc1Cl)c1cccnc1	-8*	-3.1*
Cc1ccc(S(=O)(=O)NC(=NC(Cc2ccccc2)C(=O)O)c2ccccc2)cc1 (configuration not stated)	i	0.78
Cc1cc(C(=O)CSc2nnc(-c3ccccc3F)o2)c(C)n1Cc1cccs1	i	-1.6
Clc1ccc(-n2nnnc2Sc2ncnc3sccc23)cc1	i	0.33
CCc1ccc(OCC(=O)Nc2cccc3nsnc23)cc1	i	0.33
CCN(CC)C(=O)C1CCN(S(=O)(=O)c2c(C)noc2/C=C/c2cccc(C)c2)CC1	i	-0.57
New compounds follow
SMILES	KCNQ2 block	KCNQ2 block baseline
CC1(C)NC(C)(C)C(O)(C(N)=O)C1=O (configuration not stated)	i	-1.1
Cc1ccc2nc(N3CCN(c4cccc(C)c4C)CC3)c3nnnn3c2c1	i	0.13
COc1ccc(OC)c(/C=N/NC(=O)c2cc3c(OC)cc(OC)cc3[nH]2)c1	i	0.39
O=[N+]([O-])c1ccc(S(=O)(=O)N2CCN=C2SCc2ccc(F)cc2)cc1	i	-0.13
CCCCn1c(Nc2ccccc2)nc2ccccc21	i	-1.7
O=C(NCc1ccc2c(c1)OCO2)C(=O)NCC(c1ccco1)N1CCN(c2ccccc2)CC1 (configuration not stated)	i	-1.1
CCCNC(=O)NC(=O)CSc1nc2ccccc2n1CC(C)C	i	-1.8
COc1ccc(-c2c(C)nc3c(-c4ccsc4)cnn3c2N)cc1	i	-2.3

3 compounds from above, arranged by count of non-hydrogen atoms, falling.
SMILES	KCNQ2 block	KCNQ2 block baseline
COc1ccc(CCNC(=O)COC(=O)/C=C/c2ccc(OCC#N)c(OC)c2)cc1OC	i	1.4
COCCn1nnnc1CN1CCC(NC(=O)c2ccc(Br)cc2)CC1	i	-0.32
CCCNC(=O)NC(=O)CSc1nc2ccccc2n1CC(C)C	i	-1.8

Source: PubChem BioAssay (Johns Hopkins Ion Channel Center)
